Compound activity (PubChem BioAssay)
AF4-AF9 inh = inhibitors of human MLL-AF4/AF9 interaction | AlphaScreen, biotin-AF4 peptide binding to FLAG-AF9 | inhibition, % at 10 µM | P42568 | hit rate 0.47% among 350,000 | AID 651704;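 active means every replicate reaching a set inhibition limit, whatever the replicate mean, cut at about 25% in these data; inconclusive means mean inhibition reaches that limit but some replicates miss it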;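 further: 0% = plate neutral control median and 100% = total signal loss; the record names both 10 and 1 µM as test concentration; the first replicate is given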
Target sequence (P42568 whole entry, looked up): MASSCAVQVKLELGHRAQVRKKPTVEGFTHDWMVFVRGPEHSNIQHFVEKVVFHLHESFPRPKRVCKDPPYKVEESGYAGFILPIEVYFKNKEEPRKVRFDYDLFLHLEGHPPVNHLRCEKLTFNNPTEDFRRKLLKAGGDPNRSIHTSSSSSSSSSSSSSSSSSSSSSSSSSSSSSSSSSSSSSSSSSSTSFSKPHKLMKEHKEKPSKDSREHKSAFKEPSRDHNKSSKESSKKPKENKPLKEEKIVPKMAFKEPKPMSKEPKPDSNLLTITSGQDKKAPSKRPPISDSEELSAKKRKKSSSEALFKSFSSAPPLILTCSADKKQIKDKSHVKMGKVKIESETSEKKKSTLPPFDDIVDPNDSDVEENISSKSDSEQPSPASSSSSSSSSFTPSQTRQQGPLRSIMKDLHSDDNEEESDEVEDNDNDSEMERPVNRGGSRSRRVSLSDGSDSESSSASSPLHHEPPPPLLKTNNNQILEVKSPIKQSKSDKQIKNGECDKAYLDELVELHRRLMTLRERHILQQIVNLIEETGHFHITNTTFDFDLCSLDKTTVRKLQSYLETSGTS
T cruzi repl = T. cruzi replication inhibition. hit rate 1.4% among 300,000. AID 1885. inhibition, % (test concentration not listed). T. cruzi beta-gal in NIH3T3, luminescence, 90 h;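 active means mean inhibition across valid replicates above about 55%, limit read from the data; inconclusive means mean below that limit but half or more replicates reach it; inactive means mean below it, under half of replicates reach it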;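 further: signal also drops with host cell toxicity which is not excluded here; 0% = plate median of DMSO wells and 100% = zero luminescence signal; higher percent means less beta-gal luminescence so fewer parasites; stock transfer was 50 nL into about 50 µL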
FGF22 binding = binders of recombinant human FGF22 by thermal shift; AID 651658; SYPRO orange fluorescence; percent of sucrose octasulfate shift, DMSO zero; calls only at 9.99 µM; hit rate 1.5% among 340,000;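 active means melting point raised past a set limit in the mean and every replicate; inconclusive means no clear call; three in four hits are not shown here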
Target sequence (Q9HCT0 whole entry, looked up): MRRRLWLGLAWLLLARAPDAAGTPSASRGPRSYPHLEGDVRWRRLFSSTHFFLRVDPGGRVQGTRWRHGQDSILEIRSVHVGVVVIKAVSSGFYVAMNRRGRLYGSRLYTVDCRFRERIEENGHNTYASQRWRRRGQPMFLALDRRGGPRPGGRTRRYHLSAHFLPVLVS
UCH37 inh = human UCH37 deubiquitinating enzyme inhibition; inhibition, % (no concentration beside the values); purified proteasome/UCH37, Ub-AMC cleavage fluorescence; hit rate 0.33% among 330,000;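 active means mean of two replicates above 20%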;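 further: 0% = compound-free wells with enzyme and 100% = wells lacking proteasome; stock transfer was 100 nL into about 20 µL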
Target sequence (Q9Y5K5 whole entry, looked up): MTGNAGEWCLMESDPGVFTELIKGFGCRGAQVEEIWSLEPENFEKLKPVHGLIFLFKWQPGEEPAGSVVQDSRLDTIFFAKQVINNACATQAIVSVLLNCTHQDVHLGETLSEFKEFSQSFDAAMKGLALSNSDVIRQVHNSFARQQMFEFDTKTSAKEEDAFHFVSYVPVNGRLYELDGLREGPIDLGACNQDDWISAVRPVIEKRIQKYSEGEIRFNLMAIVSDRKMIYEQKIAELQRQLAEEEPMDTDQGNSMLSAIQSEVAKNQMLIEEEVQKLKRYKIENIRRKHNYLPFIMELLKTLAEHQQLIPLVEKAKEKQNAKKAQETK
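Test system – human UCH37 enzyme supplied as purified proteasome complex · Incubation – 30 min preincubation with enzyme, 25 min cleavage at room temperature · Detection – AMC fluorescence from Ub-AMC cleavage, excitation 355 nm, emission 460 nm · Benchmarks – no-proteasome wells (full inhibition) and compound-free wells (no inhibition)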
E coli growth = blocks Escherichia coli growth; OD600, 23 h; stronger effect = lower value; OD600 absorbance (concentration not given with the values); hit rate 0.21% among 330,000;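 active means OD600 absorbance below the run mean of sample wells minus 3.6 SD, in any replicate, cut at about 0.56 in these data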;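 further: stock transfer was 300 nL into about 60 µL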
rRNA inh HTS = inhibits bacterial ribosomal RNA function over humanized ribosomes | GFP signal change (wild-type ribosome), % (test concentration not listed) | hit rate 1.6% among 350,000 | E. coli WT GFP vs humanized-ribosome RFP mutants, fluorescence, 24 h; stronger effect = lower value; DMSO median 0, no signal -100;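 active means significant combined selectivity score with lowered wild-type GFP, culture density cut under 30%, mutant RFP and density less affected; inactive means any of these conditions unmet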; further: one replicate is shown; some compounds called inactive have numbers as strong as hits
Beta apoptosis = beta cell apoptosis inhibition. INS-1E cytokine-induced death, ATP luminescence, 48 h; percent of positive-control rescue, neutral wells zero. protection from apoptosis, % (concentration not given with the values). hit rate 0.8% among 300,000;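 active means all replicates at 75% or more, or half of them and the mean; inconclusive means half reach 75% but not the mean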;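 further: 0% = cytokine-treated negative control wells and 100% = positive control rescue; higher means more ATP so stronger rescue from cytokine killing; wells of about 40 µL received 100 nL stock; the first replicate is given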
Bfl-1 A1 inh = inhibitors of the anti-apoptotic protein A1, read as caspase activation. MEF A1-2A-BIM cells, Caspase-Glo 3/7 luminescence, 3 h; percent of clofoctol response, vehicle zero. caspase activation, % (concentration not given with the values). hit rate 0.066% among 330,000. AID 2462;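 active means over half of replicate activation scores above 10%, or exactly half above 10 with the replicate mean above 10; inconclusive means replicate mean below 10 yet half the replicates above 10; inactive means over half of replicates below 10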;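 further: wells of about 30 µL received 50 nL stock; many hits fall short of the cut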
rRNA inh HTS OD600 = second read-out of rRNA inh HTS, no call of its own (marks repeat the call); OD600 change, %; measured here: OD600 growth;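 optical density of the mix in the first replicate; 0 = DMSO median and -100 = no signal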
rRNA inh HTS RFP = further read-out of rRNA inh HTS, marked with its call; RFP signal change, %; measured here: RFP humanized mutant strains;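 first replicate; 0 = DMSO median and -100 = no signal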
An asterisk follows results filed as active; i = inactive; ? = inconclusive; . = no result given.

SMILES	AF4-AF9 inh	T cruzi repl	FGF22 binding	UCH37 inh	E coli growth	rRNA inh HTS	rRNA inh HTS OD600	rRNA inh HTS RFP	Beta apoptosis	Bfl-1 A1 inh
O=C(O)CC(NC(=O)c1ccco1)c1ccco1 (centres undefined)	-1.9	-14	i	3.8	0.65	13	29	4.8	-1	1.3
O=C(NNc1nc2cc3c(cc2s1)OCO3)c1cccc(F)c1	0.1	-3	i	4.7	0.72	-49	-73	-15	-3	-2.7
NC(=O)c1nn2c(C(F)(F)F)cc(-c3ccccc3)nc2c1Br	2.0	-19	.	1.3	0.7	1	-10	-4.9	-2	-0.1
Cc1cc(NC(=O)C2CC2)n(-c2nc3ccccc3s2)n1	0.3	10	i	4.0	0.72	-3	-3	8.4	10	-0.6
COc1ccc(CCN=C(N)NS(=O)(=O)c2cc(F)ccc2F)cc1	1.0	4	i	2.7	0.68	2	2	0.7	-1	-0.2
COc1ccc(/C=C(\NC(=O)c2ccc(Cl)cc2)C(=O)NCCCn2ccnc2)cc1OC	-0.2	-1	i	5.9	0.65	1	2	1.5	0	-0.4
Cc1nn(CC(C)C(=O)N2CCN(S(=O)(=O)c3ccc(Cl)cc3)CC2)c(C)c1C (centres undefined)	-0.8	8	i	4.0	0.69	-40	-55	-2.8	-1	-0.6
COc1ccc(C)cc1NC(=O)c1cc(S(=O)(=O)N2CCCC2)cn1C	2.3	4	i	0.6	0.66	-11	-12	5.2	3	1.1
CC1CCCCN1C(=O)CSc1nnc2c(n1)[nH]c1ccc(F)cc12 (centres undefined)	-4.9	0	i	6.2	0.68	-1	8	-2.7	4	-2.6
Cc1ccccc1N1CC(C(=O)N2CC(C)OC(C)C2)CC1=O (centres undefined)	0.7	1	i	1.1	0.67	11	11	0.2	-6	0.1
Cc1ccc(-n2nnnc2SCC(=O)N2c3ccccc3NC(=O)C2(C)C)cc1	.	24	.	4.0	0.74	.	.	.	0	0.8
CC(NC(=O)c1ccco1)C12CC3CC(CC(C3)C1)C2 (centres undefined)	1.6	.	i	4.8	0.64	-18	-33	-6.8	-3	2.2
Cc1nc2sc3c(c2c(=N)n1N)CC(C)(C)OC3	.	3	.	-4.3	0.73	.	.	.	1	0.5
Cc1ccc(OCC(=O)N2CCN(S(=O)(=O)c3ccc(Cl)s3)CC2)cc1C	0.0	.	i	0.2	0.71	-2	-26	-2.7	-1	0.8
CCOc1ccc(/C=N/n2c(COc3ccccc3)n[nH]c2=S)cc1OC	-1.6	6	i	.	.	1	-3	2.0	9	0.1
CCn1c(SC/C=C/c2ccccc2)nnc1-c1cnccn1	.	5	.	-0.9	0.68	.	.	.	-2	0.3
COC(=O)C1=NN(c2ccccc2)C2C(=O)N(c3ccccc3OC)C(=O)C12 (centres undefined)	.	-10	.	-26	0.65	.	.	.	-4	-0.3
Cn1c(CN2CCOCC2)nc2cc(NC(=O)c3ccc(Cl)cc3)ccc21	.	3	.	3.8	0.73	.	.	.	.	-1.7
Cn1c(=O)oc2cc(S(=O)(=O)CCC(=O)NCCc3ccccc3)ccc21	1.8	2	i	1.7	0.71	9	4	1.0	-5	-0.7
COc1ccc(Br)c(C(=O)NC(C)(C)CO)c1	0.6	-17	i	2.7	0.66	.	.	.	-1	0.0
O=C(Nc1ccc2oc(-c3ccccc3)nc2c1)c1ccccc1F	.	8	.	-3.7	0.75	.	.	.	6	-0.5
O=C(CCNS(=O)(=O)c1cccs1)NCc1cccs1	.	-6	.	5.4	0.7	.	.	.	-2	-0.8
COc1ccc2c(c1)C1(Nc3ccccc3-c3nc4ccccc4n31)C(=O)N2 (centres undefined)	.	-1	.	-0.2	0.7	.	.	.	.	0.1
Cc1cccc(NC(=O)CN2C(=O)N/C(=C\c3cccn3-c3cccc(C(=O)O)c3)C2=O)c1	-4.3	-9	.	11	0.66	-1	6	-1.2	-6	-0.1
NC(=O)[C@@H]1CCCCNc2c(I)cc([N+](=O)[O-])cc2C(=O)N[C@@H](CCC(=O)O)C(=O)N[C@@H](CO)C(=O)N1	.	-25	i	5.5	.	12	6	-8.8	1	-0.2

Five structures already listed, arranged by length of the SMILES, falling:
SMILES	AF4-AF9 inh	T cruzi repl	FGF22 binding	UCH37 inh	E coli growth	rRNA inh HTS	rRNA inh HTS OD600	rRNA inh HTS RFP	Beta apoptosis	Bfl-1 A1 inh
Cc1nn(CC(C)C(=O)N2CCN(S(=O)(=O)c3ccc(Cl)cc3)CC2)c(C)c1C (centres undefined)	-0.8	8	i	4.0	0.69	-40	-55	-2.8	-1	-0.6
COC(=O)C1=NN(c2ccccc2)C2C(=O)N(c3ccccc3OC)C(=O)C12 (centres undefined)	.	-10	.	-26	0.65	.	.	.	-4	-0.3
COc1ccc(C)cc1NC(=O)c1cc(S(=O)(=O)N2CCCC2)cn1C	2.3	4	i	0.6	0.66	-11	-12	5.2	3	1.1
O=C(Nc1ccc2oc(-c3ccccc3)nc2c1)c1ccccc1F	.	8	.	-3.7	0.75	.	.	.	6	-0.5
CCn1c(SC/C=C/c2ccccc2)nnc1-c1cnccn1	.	5	.	-0.9	0.68	.	.	.	-2	0.3

(further entries)
SMILES	AF4-AF9 inh	T cruzi repl	FGF22 binding	UCH37 inh	E coli growth	rRNA inh HTS	rRNA inh HTS OD600	rRNA inh HTS RFP	Beta apoptosis	Bfl-1 A1 inh
Cc1cccc(C(=O)NNC(=O)C2CC2)c1	-0.2	-9	i	2.2	0.68	16	15	1.1	2	0.1
Cn1cc(C2N3CC4(C)CN2CC(C)(C3)C4=O)c2ccccc21 (centres undefined)	-1.8	0	i	0.1	0.69	7	7	-1.4	-3	-0.3
N#CCC(=O)Nc1ccc(C(=O)NCc2cccc(Cl)c2)cc1	-0.1	-3	i	-1.4	0.69	-4	5	8.8	-2	0.5
CCCCCCSc1ncc(C#N)c(N)n1	.	-1	.	1.0	0.69	.	.	.	-3	0.6
COc1cccc(CN2CC(C(=O)N(C)CC3CCOCC3)CCC2=O)c1 (centres undefined)	-1.9	-12	i	2.8	0.64	14	21	-2.0	-1	-0.5
Cc1cccc2cc(-c3nc4ccc(C(=O)O)cc4[nH]3)c(=O)oc12	.	-2	.	-351	0.65	.	.	.	17	-10
COc1ccc(/C=N\Nc2ccc([N+](=O)[O-])cc2[N+](=O)[O-])c(C(=O)O)c1OC	-38	0	i	.	.	2	4	-7.1	6	0.7
COc1ccc(C)cc1NC(=O)C1CCN(S(=O)(=O)c2ccccc2)CC1	-0.4	-3	i	1.4	0.72	12	18	0.9	.	2.0
Cc1ccc(NC(=S)N(N)CCO)cc1	-3.5	14	i	0.2	0.64	3	4	-1.5	1	0.5
COc1ccc(N(C(=O)c2ccco2)C(C(=O)NC2CCCC2)c2ccco2)cc1OC (centres undefined)	-0.2	0	i	2.2	0.67	.	.	.	-2	1.1
CC(=O)Nc1sc(C)c(C)c1C(=O)OCC(=O)Nc1cc(S(C)(=O)=O)ccc1Cl	-4.3	9	i	4.4	0.71	6	4	-4.5	0	0.9
C=CCSC1=C(C#N)C(c2ccccc2OCC)CC(=O)N1 (centres undefined)	.	0	.	2.3	0.72	3	-1	-0.3	-3	0.4
Cc1ccc(N(C(=O)c2snc(C(N)=O)c2N)C(C(=O)NC2CCCC2)c2ccncc2)cc1 (centres undefined)	0.1	8	i	-37	0.69	11	3	2.2	1	0.0
CC(NC(=O)c1cc2ccccc2o1)c1ccccc1 (centres undefined)	-2.6	-8	i	-2.7	0.65	-11	-16	-5.3	-7	-0.2
O=C(CN1c2ccccc2S(=O)(=O)c2ccccc21)NCc1ccccc1	-5.7	9	i	-5.6	0.7	-14	-2	0.9	2	-0.7
O=c1[nH]c(/C=C\c2cccc(O)c2)nc(O)c1[N+](=O)[O-]	-0.3	-14	i	13	0.72	1	2	-3.8	.	0.4
COc1ccc(O)c(C(=O)c2cnn(C(=O)c3cc(C)oc3C)c2)c1	.	0	.	-20	0.73	.	.	.	4	0.3
O=C(NNC(=O)c1ccncc1)c1ccccc1	-1.7	0	i	-4.1	0.7	15	14	-0.8	-2	0.8
CCN(CC)CCn1c(SCC(=O)Nc2cccc(OC)c2)nc2c(sc3ccccc32)c1=O	-2.1	7	i	-34	0.67	-21*	-13*	4.4*	7	1.0
COc1ccc(NC(=O)CN(C)C(=O)c2oc3c(ccc4ccccc43)c2C)cc1	-2.9	.	i	-3.2	0.69	-2	-4	4.4	3	-0.4
O=C1C=CC(c2ccccc2)(c2ccccc2)CC1	-1.5	.	i	0.6	0.71	-58	-74	-17	.	.
COc1cccc(NC(=O)c2ccc(-n3cnnn3)cc2)c1	-2.0	-9	i	-1.6	0.64	6	3	-1.0	-4	-3.3
COc1ccc(C(=O)NCC(=O)N2CCN(c3ncccn3)CC2)cc1OC	0.2	.	i	-5.8	0.67	4	4	-1.1	-2	0.7
O=C(c1cc(-c2ccccn2)nc2ccccc12)N1CCN(c2ncccn2)CC1	0.0	-1	i	-1.6	0.67	17	6	0.4	-9	0.8
CC1=C(C#N)C(=O)OC(C)(C)C1	.	-14	.	0.0	0.71	.	.	.	-1	1.0

The closing 4 compounds of the part before come first, to join the parts.
SMILES	AF4-AF9 inh	T cruzi repl	FGF22 binding	UCH37 inh	E coli growth	rRNA inh HTS	rRNA inh HTS OD600	rRNA inh HTS RFP	Beta apoptosis	Bfl-1 A1 inh
COc1cccc(NC(=O)c2ccc(-n3cnnn3)cc2)c1	-2.0	-9	i	-1.6	0.64	6	3	-1.0	-4	-3.3
COc1ccc(C(=O)NCC(=O)N2CCN(c3ncccn3)CC2)cc1OC	0.2	.	i	-5.8	0.67	4	4	-1.1	-2	0.7
O=C(c1cc(-c2ccccn2)nc2ccccc12)N1CCN(c2ncccn2)CC1	0.0	-1	i	-1.6	0.67	17	6	0.4	-9	0.8
CC1=C(C#N)C(=O)OC(C)(C)C1	.	-14	.	0.0	0.71	.	.	.	-1	1.0
NC(=O)c1ccsc1NC(=O)Cc1ccc([N+](=O)[O-])cc1	2.2	.	i	4.3	0.62	-1	-5	0.2	0	-0.6
O=C(NC1CCCc2ccccc21)c1c(F)cccc1Cl (centres undefined)	-1.4	2	i	4.1	0.66	-1	6	0.7	3	0.4
Cc1ccc(NC(=O)c2cccc(S(=O)(=O)NCc3ccccc3)c2)nc1	-1.4	-1	i	.	.	-8	-5	4.8	-2	3.4
COc1cc(C(=O)N=c2sc3ccccc3n2C)cc(OC)c1OC	-1.9	21	i	-25	0.7	-7	7	-1.9	6	-0.2
CCCc1cc(C(=O)NNC(=S)Nc2cccc(C)c2)cs1	.	9	.	-2.0	0.65	.	.	.	1	0.9
N#CCSc1nc2c(cc1C#N)CCCC2	.	-6	.	-0.2	0.65	.	.	.	.	0.8
Cc1ccc(SCC(=O)Nc2ccccc2C(=O)N2CCOCC2)cc1	1.5	11	i	3.4	0.68	7	2	-2.3	-12	-0.2
Cc1ccccc1N/N=C/c1c(C)nc2ccccn12	26*	?	i	.	.	-9	-18	-1.2	14	-0.7

Some of the compounds tested; rates above refer to the full screens.
